VDR inhibitor = vitamin D3 receptor (human) inhibition; actives 0.93% (n = 400,000); AID 504847; Potency, µM, for inactives: max response, negative = inhibition, usual class: inhibitors; VDR-SRC2-3 peptide fluorescence polarization, 2 h; active means well fitted inhibition curve with a large enough effect; inconclusive means small, poorly fitted or top-dose-only effect, or another doubt; inactive means no such curve, though single readings can be large or run the other way; further: series mostly up to about 120 µM
Target sequence (P11473 whole entry, looked up): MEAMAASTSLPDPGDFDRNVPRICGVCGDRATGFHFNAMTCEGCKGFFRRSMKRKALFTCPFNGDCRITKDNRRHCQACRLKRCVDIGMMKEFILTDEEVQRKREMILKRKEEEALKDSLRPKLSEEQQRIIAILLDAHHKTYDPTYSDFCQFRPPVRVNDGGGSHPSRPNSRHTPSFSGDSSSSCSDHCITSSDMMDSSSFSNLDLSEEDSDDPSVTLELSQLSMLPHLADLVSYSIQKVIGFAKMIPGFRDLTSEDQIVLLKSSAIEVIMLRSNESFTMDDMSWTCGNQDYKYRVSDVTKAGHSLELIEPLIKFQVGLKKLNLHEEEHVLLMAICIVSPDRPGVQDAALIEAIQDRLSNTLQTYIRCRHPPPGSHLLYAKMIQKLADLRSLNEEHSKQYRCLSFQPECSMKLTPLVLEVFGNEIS
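Fluorescence polarization assay measuring small-molecule disruption of VDR binding to the coregulator peptide SRC2-3. Compounds were pin-transferred (23 nl) into the reagent mix and incubated 2 h at room temperature before reading.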
The depositor's hits bear a star; ? = inconclusive; & = joins results of further samples. On the % scale 0 is the no-effect control and ±100 the full control effect; potency means the concentration at half of the fitted maximal effect.

SMILES | VDR inhibitor
COc1ccc(NC(=O)CSc2n[nH]c(-c3ccccc3)n2)cc1S(N)(=O)=O | 20.3%
C[C@H](CO)N1C[C@H](C)[C@@H](CN(C)C(=O)NC2CCCCC2)Oc2c(NC(=O)Nc3ccc4c(c3)OCO4)cccc2C1=O | -4.4%
O=c1c2ccccc2sc2nc(CCl)nn12 | -6.0%
CN1CCN(C(CNC(=O)C(=O)Nc2ccc3c(c2)OCCO3)c2ccc(F)cc2)CC1 (centres undefined) | 11.6%
Cc1cc(C(C)(C)C)cc(S(=O)(=O)NCC(=O)O)c1C | -4.1%
O=C(O)c1cc(-c2ccco2)nn1-c1ccc(Cl)cc1 | ?
Cc1nn(S(=O)(=O)c2ccccc2)c(C)c1S(=O)(=O)N1CCC(C)CC1 | -4.7%&5.0%
O=C(Nc1ccc(C(=O)N2CCCC2)cc1)C1CCCCC1 | -18.8%
CCCCn1nc2cc(C(=O)NCc3cc(C(F)(F)F)cc(C(F)(F)F)c3)ccc2c1OC | -22.9%
CCn1c2ccccc2c2nnc(SCc3ccccc3)nc21 | -5.5%
CCOc1ccc(NC(=O)C2CC(=O)N(c3ccccc3F)C2)cc1 (centres undefined) | 15.3%
CC(C(=O)Nc1nc(-c2ccc(F)cc2)cs1)N1C(=O)C2CC=CCC2C1=O (centres undefined) | -2.7%
CSc1ccc(Cl)c(C(=O)N2CCOc3ccccc32)c1 | -7.0%
CCn1ncc(S(=O)(=O)NCc2ccco2)c1C | -11.7%
CC1(C)CC(=O)C(C(C2=C(O)CC(C)(C)CC2=O)c2ccco2)C(=O)C1 (centres undefined) | ?
CC(=O)c1cc2c(cc1N/C(=N/S(=O)(=O)c1ccc(C)cc1)c1ccc(F)cc1)OCO2 | 1.0%
Cc1ccc(C(=O)NC2CCN(C(=O)Nc3ccccc3Cl)CC2)cc1 | 1.8%
O=c1[nH][nH]c(-c2ccccc2O)c1C(C[N+](=O)[O-])c1ccccc1 (centres undefined) | -13.6%
CCC(Sc1nc2ccncc2[nH]1)C(=O)Nc1cc(C)ccc1C (centres undefined) | -7.1%
OC(CNCC1CCCO1)Cn1c2ccc(Cl)cc2c2cc(Cl)ccc21 (centres undefined) | -13.3%
Cc1ccc(-c2nnc(SCC(=O)N/N=C/c3ccc(C)s3)n2-c2ccc(C)cc2)cc1 | -5.0%
COc1ccccc1N=NC1=C(O)CC(C)(C)CC1=O | 6.6%
CNS(=O)(=O)c1cccc(C(=O)OCC(=O)/C=C2/N(C)c3ccccc3C2(C)C)c1 | 11.0%
O=C(CSc1nncn1-c1ccccc1)c1c[nH]c2ccccc12 | 8.4%
CCCN1C(=O)C2(SC(NC(C)=O)=NN2C(C)=O)c2cc(C)ccc21 (centres undefined) | -1.8%

Carrying on.
SMILES | VDR inhibitor
Cc1cc(C)c(NC(=O)c2ccc[n+](Cc3ccc([N+](=O)[O-])cc3)c2)c(C)c1 | 1.7%
CCOCCCNC(=O)c1c(N)n(-c2ccc3c(c2)OCO3)c2nc3ccccc3nc12 | -11.0%
Cc1cc(C)nc(Nc2n[nH]c(-c3ccc(N)cc3)n2)n1 | 2.1%
CCN(CC)S(=O)(=O)c1ccc(OC)c(NC(=O)c2ccc(-n3cncn3)c([N+](=O)[O-])c2)c1 | -2.7%
Cc1cc(C)cc(NC(=O)CN2C(=O)CSc3ccc(S(=O)(=O)N4CCCC4)cc32)c1 | 10.7%
CCCCc1c(C)nn(-c2nnc3c4ccccc4n(C)c3n2)c1C | -12.5%
CCC1(CC)C(=O)NC(=O)NC1=Nc1ccccc1 | 8.2%
Clc1ccc(CN2C3=NCCCN3c3ccccc32)cc1Cl | -13.5%
CCN(CC)S(=O)(=O)c1ccc(OC)c(NC(=O)/C=C/c2ccco2)c1 | -28.7%
CCN(CC)S(=O)(=O)c1ccc(S(=O)(=O)N(CC(=O)Nc2ccccc2)Cc2ccco2)cc1 | -5.8%
CCN(Cc1ccccc1)C(=O)Cn1c(=O)cc(C)c2c(C)nn(-c3cccc(F)c3)c21 | -0.8%
CCC(CC)NC(=O)CCCSc1nc2ccccc2[nH]1 | -2.8%
Cc1nn(C)c(Oc2cccc(C(F)(F)F)c2)c1C#N | 7.5%
CC(NC(=O)COC(=O)c1ccc2c(c1)S(=O)(=O)N=C1CCCCCN12)C12CC3CC(CC(C3)C1)C2 (centres undefined) | ?
O=C(Cn1c(=O)oc2cc(S(=O)(=O)N3CCCCC3)ccc21)NCc1ccc(F)cc1 | 5.3%
CCOc1ccc(-c2nnc(N)o2)cc1 | -5.8%
O=C(COC(=O)C12CC3CC(CC(O)(C3)C1)C2)Nc1ccc(OC(F)F)cc1 | 16.3%
CCN1CCN(C(=O)c2cc3c(=O)n(C)c4ccccc4c3n2C)CC1 | -15.9%
CCOc1ccc(S(=O)(=O)N2CCN(C(=O)c3ccc(-n4cncn4)c([N+](=O)[O-])c3)CC2)cc1 | -5.2%
Cc1ccc(C)c2c1c1ccccc1n2C | 9.0%
CC(=O)Nc1ccc(S(=O)(=O)N(C)CC(=O)Nc2ccc(Br)cc2F)cc1 | -2.7%
COc1ccc(NC(=O)c2cn(CCC#N)nc2-c2cccs2)cc1 | 9.9%
CC(OC(=O)/C=C/c1ccccc1)C(=O)Nc1ccc2c(c1)OCCO2 (centres undefined) | -6.1%
CC1=NN(C(=O)CCc2ccccc2O)C(O)(C(F)(F)F)C1 (centres undefined) | -4.8%
N#Cc1ccc(C23CC4(C2)[C@H](CN(Cc2ccc(-c5ccccc5)cc2)[C@@H]4c2ccccc2)C3c2ccc(Cl)nc2)cc1 (some centres undefined) | -1.6%

(listing goes on)
SMILES | VDR inhibitor
N#Cc1cn(CC(=O)NCCc2c[nH]c3ccccc23)c2ccccc12 | -0.6%
COc1ccc(-c2cc(C(=O)NCCc3ccccc3)c3cc(C(C)C)ccc3n2)cc1 | -1.4%
Cc1ccc(NC(=O)COC(=O)COc2ccc(Cl)cc2)c([N+](=O)[O-])c1 | -10.5%
O=C(CNC(=O)c1cccs1)NCC(=O)OCc1ccc(Cl)cc1 | -8.5%
COc1ccccc1N1CCN(C2CCCN(C(=O)c3ccnc4ccc(C)cc34)C2)CC1 (centres undefined) | -4.7%
COc1ccc(-c2cc(C(=O)Nc3c(C)nn(Cc4ccccc4Cl)c3C)no2)cc1 | -8.4%
CCc1c(O)nc(SCc2ccccc2)n(C(C)CC)c1=O (centres undefined) | -2.6%
O=S(=O)(CS(=O)(=O)c1ccccc1)c1ccccc1 | -7.7%
COc1ccc(/C=N/Nc2cc(OC)ncn2)cc1 | 5.9%
Cc1cc(C)n2cc(CSc3nncn3C)nc2n1 | -7.0%
O=C1/C(=N\S(=O)(=O)c2cccs2)C([n+]2ccc(CCCc3ccccc3)cc2)=C([O-])c2ccccc21 | -0.1%
CC(C)CC(NC(=O)OCc1ccccc1)C(=O)NC(Cc1ccccc1)C(=O)CCl (centres undefined) | 70.8µM*
CCN(CC)C(NC(=O)c1ccccc1)C(=O)c1ccccc1 (centres undefined) | 13.0%
CCOc1c(Cl)cc(Cl)cc1CNCCSc1nnnn1C | 23.5%
CNC(=S)N1C2CCCC1CC(NC(=O)c1ccc(F)cc1)C2 (centres undefined) | 4.2%
CC(C)Oc1ccc(CNC(=O)C2=Cc3ccccc3OC2)cc1 | 8.6%
COc1ccc(CCN2CC(C(=O)N(C)Cc3ccc4nsnc4c3)CCC2=O)cc1 (centres undefined) | -16.6%
COc1ccc(NC(=O)N(C)C[C@H]2Oc3ccc(NC(=O)Nc4c(C)noc4C)cc3C(=O)N([C@H](C)CO)C[C@@H]2C)cc1 | 2.8%
CCOc1cc(S(=O)(=O)NCCc2c(C)[nH]c3ccc(C)cc23)ccc1F | 11.0%
N#Cc1c2ccccc2nc2ccccc12 | -7.9%
O=C(Nc1c2c(nn1-c1ccc(F)cc1)CS(=O)C2)c1ccco1 (centres undefined) | 10.0%
CC(CC(=O)O)CC(=O)Nc1cc(C(F)(F)F)cc(C(F)(F)F)c1 (centres undefined) | 5.7%
O=C(O)c1ccc(CSc2nnc(Cc3ccccc3)o2)cc1 | -2.8%
Cc1nc(-c2ccccc2)cn2c1nc1ccccc12 | -12.0%
CN(C)S(=O)(=O)c1ccc(C(=O)Oc2cc(=O)[nH]c3ccccc23)cc1 | -12.8%

The list continues:
SMILES | VDR inhibitor
CN(CCc1ccccc1)C(=O)c1ccc(NC(=O)Cc2cccc(NC(=O)C3CCN(C(=O)C4CC4)CC3)c2)cc1 | -3.8%
C=CCC[C@@H](Cc1ccc(F)cc1)C(=O)OC[C@@H]1CCCN1C(=O)[C@@H](CC=C)CC(=O)N[C@@H](CO)Cc1ccccc1 | -0.8%
CN(CCc1ccccc1)C(=O)c1cccc(NC(=O)Cc2cccc(NC(=O)C3CCCN(C(=O)CCc4ccccc4)C3)c2)c1 (centres undefined) | 2.0%
CN(CCc1ccccn1)C(=O)CCC1CCCN(C(=O)c2cccc(N(C)C)c2)C1 (centres undefined) | 14.9%
O=C(CN1CCCC1)Nc1c(Cl)cccc1Cl | 4.0%
CN(C)CCNC(=O)c1cccc2nc3c(ccc4ccccc43)nc12 | -7.9%
Fc1ccc(CN2C3=NCCN3c3ccccc32)cc1 | 16.2%
Cc1cccc(NC(=O)COc2ccc(Br)cc2/C=N/O)c1 | -1.9%
CCOc1ccc(NC(=O)C2CC=CCC2C(=O)O)cc1 (centres undefined) | -7.0%
COc1ccc(Cn2cc(CN3CCS(=O)(=O)N(Cc4ccc(-c5cccc(Cl)c5)cc4)C(C)C3=O)nn2)cc1 (centres undefined) | 7.2%
CCOC(=O)N1CCN(C(=O)COc2ccccc2OC)CC1 | -4.3%
COc1ccc(-n2c(Cc3cccn3C)nnc2SCC(=O)Nc2cccc(C)c2C)cc1 | -3.4%
COc1cccc(COc2cc3ccccc3nc2C)c1 | -0.7%
CCOC(=O)c1[nH]c(CSc2nnc(-c3ccc(OC)cc3)o2)c(C(=O)OCC)c1C | -18.6%
O=c1c2cc(N3CCOCC3)ccc2[nH]c(=S)n1CCCN1CCCC1 | 1.0%
O=C(Cc1cccc(NC(=O)C2CCCN(C(=O)C3CCCC3)C2)c1)Nc1ccc(C(=O)N2CCOCC2)cc1 (centres undefined) | -14.5%
CC1CCN(S(=O)(=O)c2ccc(S(=O)(=O)NCC3COCCO3)cc2)CC1 (centres undefined) | 2.4%
COc1cc(C(=O)NC(C)c2ccc(-n3ccnc3)cc2)cc(OC)c1C (centres undefined) | -11.2%
CC(CCN1C(Nc2ccccc2)=NC[C@@H]1C)c1ccccc1 (some centres undefined) | -13.2%
COc1ccc(S(=O)CC(=O)Nc2ccc(Cl)cc2Cl)cc1 (centres undefined) | -28.1%
CCS(=O)(=O)c1ccc2oc(SCC(=O)NCCc3ccccc3)nc2c1 | 11.7%
CCCN(C(=O)c1noc2c1COc1ccc(C)cc1-2)c1ccc(Cl)c(Cl)c1 | 15.7%
Nc1nnc(CCC2CCCCC2)s1 | 6.2%
Cc1ccc(C(=O)OCC(=O)Nc2cc(S(C)(=O)=O)ccc2Cl)cc1S(=O)(=O)N1CCCCC1 | 0.9%
COc1cccc(N(CC(=O)NC2CCCC2)C(=O)Cn2nnc(-c3ccc(C)cc3)n2)c1 | 0.0%

New compounds follow.
SMILES | VDR inhibitor
O=C(c1ccc(C(F)(F)F)cc1)N1CCC(=O)N([C@H](COCc2ccc(Cl)cc2)Cc2ccccc2)CC1 | -19.4%
O=C(Nc1ccccc1Br)N1CCN2CCCCC2C1 (centres undefined) | 4.1%
CCC(C(=O)NCCN1CCN(C)CC1)n1c(C)c2cnn(-c3ccccc3)c(=O)c2c1C (centres undefined) | -9.0%
Cc1cc(C)c(NC(=O)Nc2ccc3snnc3c2)c(C)c1 | 12.0%
COc1ccccc1C(=O)NCCC(=O)N(C)Cc1ccc(C)o1 | -12.6%
CCOC(=O)c1cnc(NCc2ccc(Cl)cc2)c2ccccc12 | 9.0%
Cc1ccccc1C(=O)OCc1cc(=O)n2nc(C3CCCCC3)sc2n1 | -1.2%
O=c1cc(-c2ccc(O)cc2)oc2ccc3ccccc3c12 | 4.0%
CCN1/C(=C/C=C/C=C/c2sc3ccccc3[n+]2CC)Sc2ccccc21 | ?
COc1ccc(NC(=O)c2cc(S(=O)(=O)N3CCCCC3)c[nH]2)c(OC)c1 | 10.5%
COc1ccc(NC(=O)CN(C)CC(=O)NCc2ccc(C)cc2)cc1 | -2.9%
O=C(NCCc1nc2ccccc2n1Cc1ccc(Cl)cc1Cl)c1ccco1 | 2.6%
COc1cc(OC)cc(C(=O)NCC(=O)OC2CCCCC2=O)c1 (centres undefined) | 0.3%

In a second layout: entries from further up.
COc1ccccc1C(=O)NCCC(=O)N(C)Cc1ccc(C)o1
  VDR inhibitor = -12.6%
O=C(NCCc1nc2ccccc2n1Cc1ccc(Cl)cc1Cl)c1ccco1
  VDR inhibitor = 2.6%

Entries listed so far that contain an NH in an aromatic ring, in the order listed:
SMILES | VDR inhibitor
COc1ccc(NC(=O)CSc2n[nH]c(-c3ccccc3)n2)cc1S(N)(=O)=O | 20.3%
O=c1[nH][nH]c(-c2ccccc2O)c1C(C[N+](=O)[O-])c1ccccc1 (centres undefined) | -13.6%
CCC(Sc1nc2ccncc2[nH]1)C(=O)Nc1cc(C)ccc1C (centres undefined) | -7.1%
O=C(CSc1nncn1-c1ccccc1)c1c[nH]c2ccccc12 | 8.4%
Cc1cc(C)nc(Nc2n[nH]c(-c3ccc(N)cc3)n2)n1 | 2.1%
CCC(CC)NC(=O)CCCSc1nc2ccccc2[nH]1 | -2.8%
N#Cc1cn(CC(=O)NCCc2c[nH]c3ccccc23)c2ccccc12 | -0.6%
CCOc1cc(S(=O)(=O)NCCc2c(C)[nH]c3ccc(C)cc23)ccc1F | 11.0%
CN(C)S(=O)(=O)c1ccc(C(=O)Oc2cc(=O)[nH]c3ccccc23)cc1 | -12.8%
CCOC(=O)c1[nH]c(CSc2nnc(-c3ccc(OC)cc3)o2)c(C(=O)OCC)c1C | -18.6%
O=c1c2cc(N3CCOCC3)ccc2[nH]c(=S)n1CCCN1CCCC1 | 1.0%
COc1ccc(NC(=O)c2cc(S(=O)(=O)N3CCCCC3)c[nH]2)c(OC)c1 | 10.5%

Bioassay records (PubChem)

Only part of the results is shown; the hit share may differ from the screen's.
